MARV entry inh = inhibitors of Marburg virus binding or cell entry. Marburg virus pseudotyped entry inhibition, cell reporter; control for the full effect not named in the record; about a third of the inactives were read at about 46 µM. Potency, µM (highest dose often 37.8 µM), for inactives: at the highest dose activity change, negative = inhibition, usual class: inhibitors. actives 1.8% (n = 300,000); active = well fitted inhibition curve with a large enough effect; inconclusive = small, poorly fitted or top-dose-only effect, or effect the other way; inactive = flat fitted curve, though single readings scatter; tested in HEK293 cells; about a fifth of its hits are not listed in these tables; also: % is scaled to controls: 0 for no effect and ±100 for the full control effect; luciferase read-out
NS1 inh = blocks influenza NS1 protein function | S. cerevisiae slowed by influenza A NS1, growth recovery by OD600 | Potency, µM (top dose mostly 46.1 µM), without a hit: top-dose activity, positive = more growth | actives 0.4% (n = 270,000); active means well fitted rising curve with a large enough effect; inconclusive means small, poorly fitted or top-dose-only effect; inactive means no such curve, though single readings can be large or run the other way; also: nearly all actives have a fitted effect of over 50% in size
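Compounds were scored for reversing the slow growth caused by influenza A NS1 in S. cerevisiae, measured by optical density at 600 nm. Assay medium contained 2% galactose at pH 6.0; NS1-free yeast of the same strain were the positive control.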
Cruzain Triton = inhibitors of Trypanosoma cruzi cruzain with detergent. purified cruzain, Z-FR-AMC fluorescence, 0.01% Triton. Potency, µM, inactives show max response, negative = inhibition, hits mostly inhibitors. actives 0.43% (n = 200,000). AID 1478;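 also: plate controls were neutral wells for no effect and buffer without enzyme for full effect; nearly all actives have a fitted effect of over 40% in size; top concentration of the series not given in the record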
Target sequence (P25779 123-467 limits assumed): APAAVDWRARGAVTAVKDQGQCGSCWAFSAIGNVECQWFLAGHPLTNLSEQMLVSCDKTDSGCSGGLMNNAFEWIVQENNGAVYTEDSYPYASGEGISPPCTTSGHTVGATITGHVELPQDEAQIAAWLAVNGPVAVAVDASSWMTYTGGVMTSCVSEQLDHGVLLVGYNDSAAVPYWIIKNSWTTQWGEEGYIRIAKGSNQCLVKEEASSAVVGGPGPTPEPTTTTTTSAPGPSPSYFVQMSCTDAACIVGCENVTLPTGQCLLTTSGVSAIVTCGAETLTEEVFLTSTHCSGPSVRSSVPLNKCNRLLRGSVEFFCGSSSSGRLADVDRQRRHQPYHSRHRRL
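In this qHTS format, compounds are incubated with 1.5 nM cruzain for 15 min at room temperature before 2 uM Z-FR-AMC is added. Release of AMC is followed at 360/450 nm, and progress is taken as the 60 s fluorescence difference.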
Lassa entry inh = inhibitors of Lassa virus binding or cell entry; Lassa virus pseudotype entry inhibition, cell reporter; control for the full effect not named in the record; Potency, µM (highest dose often 37.9 µM), inactives show top-dose activity change, negative = inhibition, actives largely listed as inhibitors; actives 1.2% (n = 300,000); AID 540256; active means well fitted inhibition curve with a large enough effect; inconclusive means small, poorly fitted or top-dose-only effect, or effect the other way; inactive means flat fitted curve, though single readings scatter; tested in HEK293 cells; also: % is scaled to controls: 0 for no effect and ±100 for the full control effect; nearly all actives have a fitted effect of over 50% in size; luciferase read-out
RE007 growth inh = less growth of the S. pombe RE007 Vpr strain; S. pombe RE007 Vpr strain, BacTiter-Glo ATP luminescence, 24 h; control for the full effect not named in the record; actives 0.21% (n = 360,000); Potency, µM (top dose mostly 92.2 µM), inactives show top-dose activity change, negative = less growth; active = well fitted falling curve with a large enough effect; inconclusive = small, poorly fitted or top-dose-only effect; inactive = no such curve, though single readings can be large or run the other way;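 also: % is scaled to controls: 0 for no effect and ±100 for the full control effect; nearly all actives have a fitted effect of over 50% in size; the assay follows cell death caused by Vpr and the record does not say whether a fall means rescue or toxicity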
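Fission yeast RE007 carrying one integrated HIV-1 vpr copy, seeded at OD 0.01 in PMG+AL medium with 23 nL pinned compound. Grown 24 h at 30 degrees; viability read by BacTiter-Glo luminescence after 5 min.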
Cruzain inh noDet = cruzain (T. cruzi) inhibition without detergent; P25779; purified cruzain, Z-FR-AMC fluorescence, no detergent; Potency, µM, inactives show max response, negative = inhibition, hits mostly inhibitors; actives 2.3% (n = 200,000); AID 1476;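 also: plate controls were enzyme without inhibitor for no effect and buffer without enzyme for full effect; nearly all actives have a fitted effect of over 40% in size; top concentration of the series not given in the record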
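Detergent-free condition (0.00005% Triton X-100) in acetate buffer pH 5.5 with DTT. 1.5 nM enzyme and compound were pre-mixed 15 min, then 2 uM Z-FR-AMC substrate added; reaction progress from fluorescence change between first and third reads (60 s).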
2A StopGo = lowers the luciferase signal of an FMDV 2A StopGo reporter | human cells with a luciferase reporter of 2A StopGo recoding; control for the full effect not named in the record | Potency, µM (series often up to 57.9 µM), for the others: at the highest dose signal change, negative = less light | actives 1.2% (n = 410,000) | AID 1159524; active = well fitted falling curve with a large enough effect; inconclusive = small, poorly fitted or top-dose-only effect; inactive = no such curve, though single readings can be large or run the other way; tested in HEK293T cells; also: % is scaled to controls: 0 for no effect and ±100 for the full control effect; nearly all actives have a fitted effect of over 45% in size; luciferase light after 4 h
SARS PLpro yeast = SARS-CoV PLP inhibition in yeast; S. cerevisiae expressing SARS-CoV PLpro, growth rescue; control for the full effect not named in the record; Potency, µM (series often up to 32.9 µM), for the others: at the highest dose activity, positive = growth rescue; actives 0.19% (n = 330,000); active means well fitted rising curve with a large enough effect; inconclusive means small, poorly fitted or top-dose-only effect; inactive means no such curve, though single readings can be large or run the other way; also: 0% is about no effect; nearly all actives have a fitted effect of over 55% in size; growth read by luminescence after 48 h
Numbers without * were called inactive; ? = inconclusive; · = not tested or not shown; & = joins results of further samples; [ ] = another dose, or the depositor's remark. Unless noted, calls follow the shape of the dose curve; as a rule, active = well fitted curve in the direction sought with a large enough effect; inconclusive = small, poorly fitted or top-dose-only effect, or another doubt; inactive = no such curve, though single readings can be large; an effect the other way counts as inactive or inconclusive. Potency is read from the fitted curve at half-maximal effect. An unsorted share of the library. About 4.6% of those tested had a hit in this group.

Below each compound – MARV entry inh	NS1 inh	Cruzain Triton	Lassa entry inh	RE007 growth inh	Cruzain inh noDet	2A StopGo	SARS PLpro yeast
#1 O=C1N=C(N2CCCCC2)SC1=C1CCCC1
  ?	-15%	-7.2%	13%	-8%	-4%	67%[activator]	-1%
#2 COc1ccc(CN(C)C(=O)c2ccc(NS(=O)(=O)c3ccc(F)cc3)cc2)c(OC)c1OC
  ?	-10%	·	-20%	-5%	·	-21%	-8%
#3 O=C(NCC1(N2CCCCC2)CCCCC1)c1ccc(NS(=O)(=O)c2ccc(F)cc2)cc1
  ?	·	·	-1%	-11%	·	-5%	0%
#4 COc1ccc(S(=O)(=O)N(C)CC(=O)Nc2ccc3c(c2)OCO3)cc1OC
  -3%	-2%	-6.1%	-19%	5%	-16%	-1%	0%
#5 O=[N+]([O-])c1cn(Cc2ccc(Cl)cc2)cn1
  ?	3%	0.7%	-16%	4%	-3%	-1%	-2%
#6 O=C(NCCN1CCCCC1)/C(=N\O)c1ccccc1
  3%&3%	3%	3.0%	-13%	9%	-10%	12%	6%
#7 CCCCCCc1ccc(OCC(=O)O)cc1OCC(=O)O
  34%[46.1 µM]	12%	-2.7%	10%	15%	-10%	-5%	-1%
#8 O=C(CSc1nnc(-c2cccnc2)n1Cc1ccco1)c1ccc(Cl)cc1
  7%	-13%	-2.5%	5%	4%	-1%	-15%	4%
#9 CCOC(=O)NC(=O)/C(C#N)=N/Nc1c(F)cccc1F
  ?	9%	-5.0%	11%	10%	-3%	?	-33%
#10 COc1ccc(CC(=O)NCCS(=O)(=O)N2CCN(c3ccccc3OC)CC2)cc1
  ?	·	·	?	-6%	·	-15%	-4%
#11 Cc1ccc(S(=O)(=O)N/N=C/c2cnn(C)c2C)cc1
  8%	5%	5.5%	-1%	9%	8%	73%[activator]	1%
#12 Cc1ccc(NC(=O)COCC(=O)Nc2ccc(C)cc2)cc1
  ·	-2%	·	·	12%	·	9%	-4%
#13 COc1ccc(CCNC(=O)c2nn(C)cc2Cl)cc1
  10%	-5%	1.0%	?	6%	0%	·	-6%
#14 COc1cc2c(cc1OC)C(COc1ccc([N+](=O)[O-])cc1)NCC2 (stereo not given)
  ·	-9%	·	·	0%	·	-9%	-1%
#15 COc1cc(/C=N/NC(=O)C23CC4CC(CC(C4)C2)C3)cc(Br)c1O
  ?	-13%	-7.3%	4%	3%	-3%	-4%	4%
#16 O=C(NNC(=O)c1ccc(NC(=O)c2ccccc2)cc1)c1ccccc1
  -12%[46.1 µM]	·	·	-10%	-5%	·	-5%	-1%
#17 O=S(=O)(Nc1nccs1)c1cnc(Cl)c(Br)c1
  -2%	-11%	0.2%	-2%	0%	-5%	50%[activator]	2%
#18 COc1ccc(C(=O)Nc2cc([N+](=O)[O-])ccc2N2CCN(C)CC2)cc1
  ?	-6%	1.7%	11%	0%	4%	-12%	6%
#19 O=C(NCCCN1CCCC1)c1ccc(CSCc2cccc(Cl)c2)o1
  ?	3%	4.4%	-4%	-1%	-1%	-13%	5%
#20 CC(C)(C)C(=O)NNC(=O)c1cc2sccc2s1
  2%[46.1 µM]	1%	·	25%[46.1 µM]	6%	·	13%	-2%
#21 COc1ccc(N2CCN(C(=O)[C@@H](NC(=O)c3ccccc3Cl)C(C)C)CC2)cc1
  -1%	11%	·	7%	-6%	·	2%	0%
#22 Cc1nn(Cc2ccccc2)c(N)c1C#N
  9%	-6%	2.4%	-3%	9%	1%	-17%	-2%
#23 COc1cc(NC(=S)NCc2cccnc2)cc(OC)c1
  7%	5%	1.6%	16%	0%	9%	44%[activator]	14%
#24 Cc1cnc(C(=O)Nc2ccc(N3CCOCC3)cc2)cn1
  ?	?	-2.0%	28%[14.3 µM]	7%	-12%	70%[activator]	1%
#25 O=C(N/N=C/c1ccccn1)c1ccc(Cl)cc1
  ?	-52%	·	?	?	·	?	20%
#26 Cc1nc(N2CCOCC2)nc2c1CCC2
  ?	·	·	?	2%	·	0%	-1%
#27 O=C(Nc1ccc(F)cc1)c1ccc(S(=O)(=O)N2CCCC2)cc1
  -17%[46.1 µM]	-2%	·	·	4%	·	-20%	-1%
#28 CCCn1c(SCC(=O)NC2CC2)nnc1-c1cccs1
  2%[46.1 µM]	21%	·	18%[46.1 µM]	-2%	·	-12%	-5%
#29 CC(=O)c1ccc(NC(=O)CSc2nc(=O)n(Cc3ccncc3)c3c2CCC3)cc1
  ·	·	0.2%	3%[46.1 µM]	·	0%	-9%	·
#30 O=C(NCC1CCCO1)Nc1ccc(Cl)cc1 (stereo not given)
  6%	9%	-2.1%	16%	24%	4%	41%[activator]	·
#31 O=S(=O)(Nc1ccc(N2CCCCC2)cc1)c1ccc(F)cc1F
  -6%	-4%	·	1%	2%	·	-26%	-1%
#32 COc1ccc(NC(=O)C2CCC(CNc3c(N4CCC(C)CC4)c(=O)c3=O)CC2)cc1OC (stereo not given)
  -4%&-4%[46.1 µM]	2%	-2.8%	-14%[46.1 µM]	-24%&-6%	12%	4%&11%	-5%
#33 CCc1ccc(N2CC34C=CC(O3)C(C(=O)OC)C4C2=O)cc1 (stereo not given)
  -1%	-4%	0.4%	10%	8%	18%	-5%	1%
#34 CSc1nc(Cl)c(Cc2ccc(OC(C)C)cc2)c(N(C)C)n1
  ?	-14%	-5.0%	-9%	6%	-1%	0%	-47%
#35 Cc1cc(C(=O)COC(=O)C23CC4CC(CC(O)(C4)C2)C3)c(C)n1C
  9%	·	·	-28%	-7%	·	72%[activator]	-1%
#36 Cc1nn(-c2ccccc2)c(N)c1C(O)(C(F)(F)F)C(F)(F)F
  ?	6%	-4.7%	6%	1%	10%	-15%	-6%
#37 CCOC(=O)C1CCCN(S(=O)(=O)c2ccc3ccccc3c2)C1 (stereo not given)
  -16%[46.1 µM]	-17%	·	-29%[46.1 µM]	-15%	·	-17%	24%
#38 C/C(N)=C(/C#N)C(=O)CSc1nnc(Nc2ccccc2C)s1
  24%	13%	-3.4%	3%	8%	-7%	31%[activator]	14%
#39 COC(=O)CCC(=O)OC1(C)C(=O)C=C2C=C(C3CC3)N(Cc3ccccc3)C=C2C1=O (stereo not given)
  ·	12%	·	·	12%	·	-7%	1%
#40 O=C(NCc1csc(-c2cccs2)n1)Nc1ccc(C(F)(F)F)cc1
  4%[46.1 µM]	4%	·	-18%	8%	·	-7%	0%
#41 O=C(CSc1nnc2n1CCCN2)c1ccccc1
  ?	5%	·	20%[46.1 µM]	1%	·	14%	0%
#42 O=C(c1ccco1)N1CCN(C(=O)C(Sc2ccccc2)c2ccccc2)CC1 (stereo not given)
  -27%	-12%	-1.9%	?	8%	0%	?	-8%
#43 CCCNC(=O)COc1ccc(-c2nn(C)c(=O)c3ccccc23)cc1
  -17%	13%	·	-24%	-11%	·	-2%	0%
#44 Cc1cc(NC(=O)COc2cccc([N+](=O)[O-])c2)no1
  ·	24%	·	·	-3%	·	-16%	3%
#45 CCCCNC(=O)CN1C(=O)c2c(c3ccccc3n2C)C1c1ccc(OC)cc1 (stereo not given)
  ·	·	-7.3%	29%[46.1 µM]	·	?	-10%	·
#46 Cc1ccc(S(=O)(=O)NCCC(=O)Nc2nccs2)cc1
  -2%[46.1 µM]	·	·	?	-10%	·	2%	1%
#47 O=C(NCC1CCCO1)/C(=C\c1ccco1)NC(=O)c1ccccc1 (stereo not given)
  -3%	17%	-1.9%	1%	12%	-1%	8%	6%
#48 N#C/C(=C(/O)COC(=O)Cc1c[nH]c2ccccc12)c1nc2ccccc2[nH]1
  ?	4%	-4.3%	-4%	-14%	?	?	4%
#49 CC(=O)Oc1cc2c(cc1Cl)C1(CC(c3ccccc3Cl)O2)CC(C)(C)NC(=S)N1 (stereo not given)
  ?	27%	-0.8%	?	17%	?	?	4%
#50 Cc1cccc(N2CCN(S(=O)(=O)c3ccc4c(c3)C(C(C)C)C(=O)N4)CC2)c1C (stereo not given)
  ·	·	-7.4%	1.3µM*	·	-5%	0%	·
#51 CCOc1cc(C(=S)N2CCN(C)CC2)ccc1OCC(=O)N1CCCC1
  -2%	·	·	13%	0%	·	-8%	·
#52 CC1CCCN(C(=O)c2ccc3c(c2)OCO3)C1 (stereo not given)
  ?	7%	·	22%[46.1 µM]	5%	·	9%	1%
#53 Cc1cc(C(F)F)n2nc(C(=O)Nc3sc4c(c3C#N)CCC4)nc2n1
  15%	-2%	-6.2%	-2%	-3%	-11%	-13%	-2%
#54 CC1CCCC(C)N1c1nnc(N)s1 (stereo not given)
  14%	-5%	0.2%	3%	12%	-2%	-9%	14%
#55 CCCCn1c(-c2cc(Cl)ccc2OC)n[nH]c1=S
  7%	4%	-0.7%	9%	5%	5%	-5%	·
#56 Cc1ccc2c(c1)c(=O)c(C(=O)c1ccncc1)cn2CC(=O)Nc1ccccc1Cl
  ·	·	-1.3%	10%[46.1 µM]	·	3%	-9%	·
#57 CC1Cc2ccccc2N1C(=O)CSc1nnc(-c2ccc(S(=O)(=O)N3CCOCC3)cc2)n1C (stereo not given)
  ?	-6%	0.7%	7%	9%	?	?	17%
#58 COC(=O)c1cc(C)sc1NC(=O)c1cccnc1
  -6%	-6%	-0.8%	-10%	3%	-2%	?	1%
#59 CCSc1ccc(/C(N)=N/OC(=O)c2cccs2)cn1
  ·	-17%	·	·	5%	·	65%[activator]	16%
#60 CC1CCCN(CCCOc2ccc([N+](=O)[O-])cc2)C1 (stereo not given)
  ?	4%	-0.2%	1%	-3%	5%	-7%	6%
#61 O=C(N/N=C/c1cccc2ccccc12)c1ccccc1Cl
  6%[46.1 µM]	-44%	·	?	8%	·	-13%	-4%
#62 CCCCC(=O)Nc1ccc(N2CCCC2)cc1
  10%	·	·	2%	-5%	·	36%[activator]	·
#63 CCCCC(=O)Nc1ccc(C(=O)NCCCn2ccnc2)cc1
  4%	12%	-3.4%	-4%	-4%	-14%	0%	1%

Assay outcomes: PubChem, National Center for Advancing Translational Sciences (NCATS)
